E coli growth: blocks Escherichia coli growth. OD600, 23 h; stronger effect = lower value. OD600 absorbance (no concentration beside the values). hit rate 0.21% among 330,000;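 active means OD600 absorbance below the run mean of sample wells minus 3.6 SD, in any replicate, cut at about 0.56 in these data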;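 further: stock transfer was 300 nL into about 60 µL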
Beta2AR agonist: activates human beta-2 adrenergic receptor causing internalization; P07550; Am2.2-beta2AR cells, FAP receptor internalization, flow cytometry; reference of the scale not given here; response, % (concentration not given with the values); hit rate 0.43% among 340,000;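 active means response above a set limit, near 3 SD of response in nonfluorescent compounds, cut at about 42% in these data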;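 further: stock transfer was 100 nL into about 11 µL; a reference agonist was the positive control; negative values mostly stem from fluorescent compounds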
HNF4A DNA FP: change in binding of human HNF4 alpha to DNA | AID 1224865 | P41235 | HNF4a-FITC DNA binding, fluorescence polarization, 1 h | activity change, % at 10 µM | hit rate 0.3% among 360,000; in the data active means activity change above about 30%, passing the limit was not always enough;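 further: controls were the assay level and a saturating level of protein; the project sought stronger binding though the title names inhibitors; some compounds called inactive have numbers as strong as hits; positive values seem to mean higher polarization but the record does not say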
Target sequence (P41235 whole entry, looked up): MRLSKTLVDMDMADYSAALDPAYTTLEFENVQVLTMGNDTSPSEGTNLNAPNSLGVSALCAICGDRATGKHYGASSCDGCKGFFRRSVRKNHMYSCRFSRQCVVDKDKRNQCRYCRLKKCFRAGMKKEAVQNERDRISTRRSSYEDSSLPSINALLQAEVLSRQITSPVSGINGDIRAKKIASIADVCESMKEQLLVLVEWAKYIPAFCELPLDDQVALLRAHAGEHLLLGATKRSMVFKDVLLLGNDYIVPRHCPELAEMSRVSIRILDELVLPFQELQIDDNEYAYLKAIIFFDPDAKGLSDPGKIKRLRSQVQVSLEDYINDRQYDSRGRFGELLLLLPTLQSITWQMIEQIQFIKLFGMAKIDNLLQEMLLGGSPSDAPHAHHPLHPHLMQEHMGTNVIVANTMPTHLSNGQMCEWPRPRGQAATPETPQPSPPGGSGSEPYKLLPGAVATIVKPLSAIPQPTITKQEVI
FGF22 binding: FGF22 (human) thermal shift binding | recombinant FGF22 thermal shift, SYPRO orange fluorescence; percent of sucrose octasulfate shift, DMSO zero | Q9HCT0 | hit rate 1.5% among 340,000 | calls only at 9.99 µM | AID 651658;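 active means melting point raised past a set limit in the mean and every replicate; three in four hits are not shown here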
Target sequence (Q9HCT0 whole entry, looked up): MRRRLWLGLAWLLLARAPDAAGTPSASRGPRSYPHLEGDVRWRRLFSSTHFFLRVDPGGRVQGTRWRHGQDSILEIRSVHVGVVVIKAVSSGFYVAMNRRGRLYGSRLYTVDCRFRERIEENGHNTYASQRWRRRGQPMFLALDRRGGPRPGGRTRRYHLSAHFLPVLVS
ALR H2O2 inh: inhibitors of human sulfhydryl oxidase ALR; P55789; purified ALR, DTT oxidation, H2O2 HRP-luminol luminescence; inhibition, % (no concentration beside the values); hit rate 3.8% among 290,000;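 active means mean and each replicate at 75% or more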;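 further: stock transfer was 7.5 nL into about 7.5 µL; 0% = neutral wells and 100% = wells with inactivated enzyme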
rRNA inh HTS: inhibitors of bacterial rRNA selective over humanized ribosomes; E. coli WT GFP vs humanized-ribosome RFP mutants, fluorescence, 24 h; stronger effect = lower value; DMSO median 0, no signal -100; GFP signal change (wild-type ribosome), % (no concentration beside the values); hit rate 1.6% among 350,000; AID 720706;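 active means significant combined selectivity score with lowered wild-type GFP, culture density cut under 30%, mutant RFP and density less affected; inactive means any of these conditions unmet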; further: one replicate is shown; some compounds called inactive have numbers as strong as hits
UCH37 DUB inh: blocks the human deubiquitinase UCH37; Q9Y5K5; purified proteasome/UCH37, Ub-AMC cleavage fluorescence; inhibition, % (concentration not given with the values); hit rate 0.33% among 330,000;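 active means mean of two replicates above 20%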;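 further: 0% = compound-free wells with enzyme and 100% = wells lacking proteasome; stock transfer was 100 nL into about 20 µL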
Target sequence (Q9Y5K5 whole entry, looked up): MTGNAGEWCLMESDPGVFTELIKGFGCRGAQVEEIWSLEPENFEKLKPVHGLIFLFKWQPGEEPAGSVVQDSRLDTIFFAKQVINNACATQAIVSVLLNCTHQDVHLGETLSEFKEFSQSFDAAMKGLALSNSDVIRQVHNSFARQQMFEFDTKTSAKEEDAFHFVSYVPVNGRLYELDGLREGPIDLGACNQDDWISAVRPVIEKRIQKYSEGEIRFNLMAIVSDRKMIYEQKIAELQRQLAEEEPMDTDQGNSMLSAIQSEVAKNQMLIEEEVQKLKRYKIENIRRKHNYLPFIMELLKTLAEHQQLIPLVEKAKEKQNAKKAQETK
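Test system – human UCH37 enzyme supplied as purified proteasome complex · Incubation – 30 min preincubation with enzyme, 25 min cleavage at room temperature · Detection – AMC fluorescence from Ub-AMC cleavage, excitation 355 nm, emission 460 nm · Benchmarks – no-proteasome wells (full inhibition) and compound-free wells (no inhibition)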
rRNA inh HTS OD600: second read-out of rRNA inh HTS, no call of its own (marks repeat the call); OD600 change, %; measured here: OD600 growth;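 optical density of the mix in the first replicate; 0 = DMSO median and -100 = no signal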
rRNA inh HTS RFP: also measured in rRNA inh HTS; calls as there; RFP signal change, %; measured here: RFP humanized mutant strains;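 first replicate; 0 = DMSO median and -100 = no signal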
Active calls of the source: *.

Sample of the layout, six compounds:
O=C(COC(=O)CCS(=O)(=O)c1ccc(F)cc1)NC1CCCCC1 was read as E coli growth 0.67, Beta2AR agonist -5, HNF4A DNA FP 0.0, FGF22 binding inactive, ALR H2O2 inh 30 and UCH37 DUB inh 1.7.
For Cc1ccc(OCc2nc(-c3ccccn3)no2)cc1 the results were E coli growth 0.62, Beta2AR agonist -13, HNF4A DNA FP -1.3, FGF22 binding inactive, ALR H2O2 inh 7, rRNA inh HTS -9, UCH37 DUB inh -0.6, rRNA inh HTS OD600 6 and rRNA inh HTS RFP 1.7.
`Cc1cc(=O)[nH]c(N/N=C/C=C/c2ccccc2)n1` gave Beta2AR agonist -5, HNF4A DNA FP 0.1, FGF22 binding inactive, ALR H2O2 inh 15, rRNA inh HTS 11, rRNA inh HTS OD600 13 and rRNA inh HTS RFP 0.1.
Screening C#CCN1C(=O)S/C(=C\c2ccc(-c3ccc(C(=O)O)cc3C)o2)C1=O returned E coli growth 0.7, Beta2AR agonist 5, HNF4A DNA FP -29, FGF22 binding inactive, ALR H2O2 inh 90*, rRNA inh HTS -7, UCH37 DUB inh 4.5, rRNA inh HTS OD600 -15 and rRNA inh HTS RFP -1.1.
Screening CC(=O)N1N=C(c2ccc(Br)cc2)OC1(C)CC(=O)Nc1ccccc1 (configuration not stated) returned E coli growth 0.7, Beta2AR agonist -8, HNF4A DNA FP 5.2, ALR H2O2 inh -52 and UCH37 DUB inh -9.7.
Screening O=C(Cc1ccccc1)Nc1c2c(nn1-c1cccc(Cl)c1)CS(=O)(=O)C2 returned E coli growth 0.67, Beta2AR agonist 2, HNF4A DNA FP -1.2, ALR H2O2 inh -1 and UCH37 DUB inh 3.7.

All compounds of this part, from the start:
O=C(COC(=O)CCS(=O)(=O)c1ccc(F)cc1)NC1CCCCC1 was read as E coli growth 0.67, Beta2AR agonist -5, HNF4A DNA FP 0.0, FGF22 binding inactive, ALR H2O2 inh 30 and UCH37 DUB inh 1.7.
For Cc1ccc(OCc2nc(-c3ccccn3)no2)cc1 the results were E coli growth 0.62, Beta2AR agonist -13, HNF4A DNA FP -1.3, FGF22 binding inactive, ALR H2O2 inh 7, rRNA inh HTS -9, UCH37 DUB inh -0.6, rRNA inh HTS OD600 6 and rRNA inh HTS RFP 1.7.
`Cc1cc(=O)[nH]c(N/N=C/C=C/c2ccccc2)n1` gave Beta2AR agonist -5, HNF4A DNA FP 0.1, FGF22 binding inactive, ALR H2O2 inh 15, rRNA inh HTS 11, rRNA inh HTS OD600 13 and rRNA inh HTS RFP 0.1.
Screening C#CCN1C(=O)S/C(=C\c2ccc(-c3ccc(C(=O)O)cc3C)o2)C1=O returned E coli growth 0.7, Beta2AR agonist 5, HNF4A DNA FP -29, FGF22 binding inactive, ALR H2O2 inh 90*, rRNA inh HTS -7, UCH37 DUB inh 4.5, rRNA inh HTS OD600 -15 and rRNA inh HTS RFP -1.1.
Screening CC(=O)N1N=C(c2ccc(Br)cc2)OC1(C)CC(=O)Nc1ccccc1 (configuration not stated) returned E coli growth 0.7, Beta2AR agonist -8, HNF4A DNA FP 5.2, ALR H2O2 inh -52 and UCH37 DUB inh -9.7.
Screening O=C(Cc1ccccc1)Nc1c2c(nn1-c1cccc(Cl)c1)CS(=O)(=O)C2 returned E coli growth 0.67, Beta2AR agonist 2, HNF4A DNA FP -1.2, ALR H2O2 inh -1 and UCH37 DUB inh 3.7.
Cc1cc(OCC(=O)N(C)C)c2c(-c3ccccc3)cc(=O)oc2c1 was read as E coli growth 0.72, Beta2AR agonist -16, HNF4A DNA FP 3.1, FGF22 binding inactive, ALR H2O2 inh 1, rRNA inh HTS -6, UCH37 DUB inh -6.1, rRNA inh HTS OD600 -8 and rRNA inh HTS RFP -2.3.
For O=C(CN1CCN(Cc2ccc3c(c2)OCO3)CC1)Nc1ccc2[nH]c(=O)[nH]c2c1 the results were E coli growth 0.61, Beta2AR agonist -3, HNF4A DNA FP 0.7, FGF22 binding inactive, ALR H2O2 inh 1, rRNA inh HTS 22, UCH37 DUB inh -0.8, rRNA inh HTS OD600 20 and rRNA inh HTS RFP 5.7.
`O=[N+]([O-])c1cccc(-n2cc3ccc([N+](=O)[O-])cc3n2)c1` gave E coli growth 0.69, Beta2AR agonist -1, HNF4A DNA FP -0.5, FGF22 binding inactive, ALR H2O2 inh 2, rRNA inh HTS 13, UCH37 DUB inh 2.0, rRNA inh HTS OD600 11 and rRNA inh HTS RFP -1.3.
For COc1ccc(S(=O)(=O)/N=C2/NC(=O)/C(=C\c3cc(OC)c(OC)cc3[N+](=O)[O-])S2)cc1 the results were E coli growth 0.68, Beta2AR agonist 0, HNF4A DNA FP -0.8, ALR H2O2 inh 31 and UCH37 DUB inh 9.4.
Screening Cc1ccc(C)c(NC(=O)CN(C)C(=O)c2ccccn2)c1 returned HNF4A DNA FP 2.0, FGF22 binding inactive, rRNA inh HTS 2, rRNA inh HTS OD600 2 and rRNA inh HTS RFP -3.6.
For CCOC(=O)N1CCC2(CC1)NC(=O)c1ccccc1N2 the results were HNF4A DNA FP 4.5, FGF22 binding inactive, rRNA inh HTS 20, rRNA inh HTS OD600 13 and rRNA inh HTS RFP -0.5.
`O=C(NCCc1cccc(Cl)c1)c1cc2ccccc2oc1=O` gave E coli growth 0.6, Beta2AR agonist -8, HNF4A DNA FP -1.0, ALR H2O2 inh -9 and UCH37 DUB inh -6.1.
O=C(NN=Cc1ccc(Cl)cc1Cl)C1CC1 was read as E coli growth 0.68, Beta2AR agonist -12, HNF4A DNA FP 1.4, FGF22 binding inactive, rRNA inh HTS -5, UCH37 DUB inh -0.9, rRNA inh HTS OD600 -24 and rRNA inh HTS RFP -2.7.
COc1cc(OC)cc(-c2nc(SCC(=O)Nc3ccccc3F)n[nH]2)c1 was read as E coli growth 0.69, Beta2AR agonist 5, HNF4A DNA FP 0.7, FGF22 binding inactive, ALR H2O2 inh 13, rRNA inh HTS -5, UCH37 DUB inh -0.7, rRNA inh HTS OD600 -29 and rRNA inh HTS RFP 2.3.
`Cc1ccc2oc(-c3cccc(NC(=O)Cn4cnc5c(=O)n(C)c(=O)n(C)c54)c3)nc2c1` gave E coli growth 0.64, ALR H2O2 inh -15 and UCH37 DUB inh -21.
Cc1ccc(-c2nnc3n2N=C(c2ccc(Br)cc2)CS3)cc1 was read as E coli growth 0.73, Beta2AR agonist -35, HNF4A DNA FP 0.3, FGF22 binding inactive, ALR H2O2 inh 18, rRNA inh HTS -5, UCH37 DUB inh 5.6, rRNA inh HTS OD600 6 and rRNA inh HTS RFP -3.9.
`CCc1noc(C)c1C(=O)Nc1nc(-c2cccs2)cs1` gave E coli growth 0.63, Beta2AR agonist -3, HNF4A DNA FP 0.8, FGF22 binding inactive, ALR H2O2 inh 0, rRNA inh HTS -15, UCH37 DUB inh 2.0, rRNA inh HTS OD600 -17 and rRNA inh HTS RFP -1.1.
For O=C(/C=C/c1ccco1)NC(=S)Nc1ccc(N2CCCC2)cc1 the results were E coli growth 0.72, Beta2AR agonist 44*, HNF4A DNA FP -5.8, ALR H2O2 inh 74 and UCH37 DUB inh -0.1.
For CC1(C(=O)Nc2cccc3cccnc23)CCN1Cc1ccccc1OC(F)F (configuration not stated) the results were HNF4A DNA FP -0.6, FGF22 binding inactive, rRNA inh HTS 0, rRNA inh HTS OD600 1 and rRNA inh HTS RFP -1.3.
`On1c(-c2ccc(Cl)cc2Cl)nc2ncccc21` gave E coli growth 0.62, Beta2AR agonist 10, HNF4A DNA FP 1.2, FGF22 binding inactive, ALR H2O2 inh -3, rRNA inh HTS -11, UCH37 DUB inh -0.1, rRNA inh HTS OD600 -8 and rRNA inh HTS RFP -4.2.
`Cc1csc2nc(CNS(=O)(=O)c3cccnc3)cn12` gave E coli growth 0.69, Beta2AR agonist -1, HNF4A DNA FP 2.1, FGF22 binding inactive, ALR H2O2 inh -3, rRNA inh HTS 10, UCH37 DUB inh 3.4, rRNA inh HTS OD600 6 and rRNA inh HTS RFP -4.6.
COc1ccc(COC(=O)C2CCN(S(=O)(=O)c3ccc(Cl)cc3)CC2)cc1 was read as E coli growth 0.65, Beta2AR agonist 2, HNF4A DNA FP 1.8, FGF22 binding inactive, rRNA inh HTS 7, UCH37 DUB inh 5.1, rRNA inh HTS OD600 0 and rRNA inh HTS RFP 3.0.
For O=C(NC(Cc1ccccc1)C(=O)O)/C(=C\c1ccccc1)NC(=O)c1ccc(Br)o1 (configuration not stated) the results were E coli growth 0.72, Beta2AR agonist -1, HNF4A DNA FP 0.2, FGF22 binding inactive, ALR H2O2 inh 49, rRNA inh HTS 17, UCH37 DUB inh 0.9, rRNA inh HTS OD600 17 and rRNA inh HTS RFP 3.3.
Screening O=C(Nc1ccc(NC(=S)NC(=O)c2ccccc2F)cc1)c1cccs1 returned E coli growth 0.67, Beta2AR agonist -8, HNF4A DNA FP 1.4, FGF22 binding inactive, ALR H2O2 inh 29, rRNA inh HTS -16, UCH37 DUB inh 3.3, rRNA inh HTS OD600 -21 and rRNA inh HTS RFP -10.
Screening O=C(COC(=O)Cc1n[nH]c(=O)c2ccccc12)Nc1cccc(C(F)(F)F)c1 returned E coli growth 0.68, Beta2AR agonist -7, HNF4A DNA FP 1.1, FGF22 binding inactive, ALR H2O2 inh -5, rRNA inh HTS -4, UCH37 DUB inh -2.0, rRNA inh HTS OD600 0 and rRNA inh HTS RFP 7.0.
O=C(NC1CCCCC1)C(c1ccc2ncccc2c1)N(Cc1ccccc1)C(=O)c1ccc2c(c1)OCCO2 (configuration not stated) was read as E coli growth 0.73, Beta2AR agonist -3, HNF4A DNA FP 2.5, ALR H2O2 inh -1 and UCH37 DUB inh 2.9.
`COc1ccccc1-n1c(SCC(=O)N2CCc3ccccc32)nc2c(c1=O)SCC2` gave E coli growth 0.84, Beta2AR agonist -7, HNF4A DNA FP -3.7, FGF22 binding inactive, ALR H2O2 inh -8, rRNA inh HTS 15, UCH37 DUB inh 6.1, rRNA inh HTS OD600 17 and rRNA inh HTS RFP 6.8.
Screening CCC(=O)N1CCCC1(C)C(=O)Nc1ccc2nc(C)ccc2c1 (configuration not stated) returned HNF4A DNA FP 3.5, FGF22 binding inactive, rRNA inh HTS 14, rRNA inh HTS OD600 15 and rRNA inh HTS RFP -1.5.
Cn1c(=O)n(C)c2cc([N+](=O)[O-])c(N3CCN(C(=O)c4cccc(Cl)c4)CC3)cc21 was read as E coli growth 0.74, Beta2AR agonist -3, HNF4A DNA FP 0.9, ALR H2O2 inh -20 and UCH37 DUB inh 10.

Only part of the results is shown (hit frequency here may not be typical).
